PKD1 kinase inh – inhibitors of human PKD1 kinase, biochemical, fluorescence polarization | Serine/threonine-protein kinase D1 (Homo sapiens), Q15139 | PKD1 kinase fluorescence polarization assay | inhibition, %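 (about 10 µM by stock and volumes)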 | actives 0.056% (n = 200,000);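 active means inhibition of 50% or more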;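 further: controls were vehicle for no effect and a reference inhibitor for full effect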
INS promoter inh – inhibitors of insulin promoter-driven GFP, primary screen, imaging, TRM-6 cells (human fetal islet line), eGFP reporter, cell count | reporter expression induced with tamoxifen | inhibition, % at 2 µM | actives 0.9% (n = 130,000) | AID 1273, 2008;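 active means inhibition above the mean plus 3 SD, with well images judged a real hit on visual review, cut at about 60% in these data, passing the limit was not always enough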
HSV replic up – enhancers of HSV replication in host cells, fold increase, host cell viability; maximum fold increase; AID 1956, 2009; actives 0.005% (n = 220,000); HSV replication augmentation in cells;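 active means peak rise of 1.5-fold or more in the series; tested in PC3 cells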;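 further: first round at 10 µM; read as green reporter fluorescence; hits show the peak of a series up to 25 µM; 1 = signal of infected wells without compound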
RGS16-Gao – modulators of RGS16 binding to Galphao, primary screen, biochemical, human proteins, multiplexed bead flow cytometry. bead-based flow cytometry RGS16-Galphao binding, fluorescence; actives lie on both sides. actives 0.38% (n = 220,000). binding response (% of control), % at 10 µM. Regulator of G-protein signaling 16 (Homo sapiens) + Guanine nucleotide-binding protein …;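 active means below 25% or above 175%, edge rows of some plates excepted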;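 further: Galphao activated by GDP with aluminum fluoride before binding; 100% = wells without compound and 0% = beads without RGS; some results beyond the cut were filed as inactive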
Target sequence (O15492 whole entry, looked up): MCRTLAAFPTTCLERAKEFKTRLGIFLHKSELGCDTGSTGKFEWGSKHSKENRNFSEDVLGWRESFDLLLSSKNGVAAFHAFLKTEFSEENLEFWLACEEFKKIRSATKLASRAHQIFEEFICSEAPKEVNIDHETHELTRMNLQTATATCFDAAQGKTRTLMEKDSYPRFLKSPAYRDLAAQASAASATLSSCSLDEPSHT
Target sequence (P09471 whole entry, looked up): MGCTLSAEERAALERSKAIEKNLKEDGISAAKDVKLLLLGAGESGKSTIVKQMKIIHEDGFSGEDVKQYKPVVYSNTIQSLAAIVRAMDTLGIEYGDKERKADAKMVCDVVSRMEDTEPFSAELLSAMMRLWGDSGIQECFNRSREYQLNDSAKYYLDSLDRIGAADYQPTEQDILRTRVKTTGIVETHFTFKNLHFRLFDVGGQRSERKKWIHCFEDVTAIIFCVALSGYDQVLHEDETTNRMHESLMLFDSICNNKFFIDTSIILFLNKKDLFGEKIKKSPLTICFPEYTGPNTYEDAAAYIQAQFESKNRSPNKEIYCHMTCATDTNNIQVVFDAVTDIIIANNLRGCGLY
GALR2 agonist – GALR2 receptor agonists, primary screen, cell-based; GALR2-expressing cells, agonist activation read-out; activation, %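 (tested at 5 µM)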; actives 0.48% (n = 140,000); AID 803, 2007;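 active means above mean plus 3 SD of all compounds, about 5% in these data, not always enough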;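 further: 0% = vehicle buffer wells and 100% = reference agonist at full effect; tested in CHO reporter cells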
Target sequence (O43603 whole entry, looked up): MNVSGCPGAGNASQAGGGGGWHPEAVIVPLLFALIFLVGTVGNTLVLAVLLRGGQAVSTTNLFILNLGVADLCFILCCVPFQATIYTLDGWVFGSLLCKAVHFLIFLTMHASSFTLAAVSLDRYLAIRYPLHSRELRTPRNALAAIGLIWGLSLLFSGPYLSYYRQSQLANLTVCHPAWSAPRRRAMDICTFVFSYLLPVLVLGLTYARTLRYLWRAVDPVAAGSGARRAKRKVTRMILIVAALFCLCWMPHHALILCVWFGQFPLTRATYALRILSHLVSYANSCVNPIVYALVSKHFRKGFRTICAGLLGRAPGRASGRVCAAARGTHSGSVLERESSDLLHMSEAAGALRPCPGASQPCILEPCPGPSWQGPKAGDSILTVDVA
INS promoter inh cell count – further read-out of INS promoter inh, marked with its call; normalized cell count, %; measured here: cell count, toxicity; reference of the scale not given here;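 cells exposed to compound for 48 h; stained nuclei by imaging scaled within each plate; lower means fewer cells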
HSV replic up primary fold – second read-out of HSV replic up, no call of its own (marks repeat the call); fold increase; compound at 10 µM; measured here: primary screen fold increase 10 uM; tested in PC3 cells;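 GFP signal in the first replicate; 1 = infected wells without compound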
The depositor's hits bear a star; i = inactive; . = no result given.

Order of values: PKD1 kinase inh, HSV replic up primary fold, RGS16-Gao, INS promoter inh cell count, GALR2 agonist, INS promoter inh, HSV replic up
> O=S(=O)(N/N=C\C=C\c1ccccc1)c1ccccc1
    -10.8, 0.7, ., 105.9, -3.7, -50.0, i
> CCNc1nc(=S)nc(NC(C)C)[nH]1
    -6.7, 0.98, 98.9, ., -0.8, ., i
> CCOC(=O)C1=NN(C(C)=O)C2(CC(=O)N(c3ccc(C)c(C)c3)C2=O)C1 (stereo not given)
    -7.0, 0.99, 101.6, 72.2, 0.3, -40.0, i
> Cc1ccc(C)c(NC(=O)C(NCC(C)(C)N2CCOCC2)c2ccccc2)c1 (stereo not given)
    -6.6, 0.93, 99.8, 123.5, ., -42.9, i
> COc1cc(OC)c(OC)cc1CN(C)C(c1ccccc1)c1nnnn1-c1ccccc1C (stereo not given)
    19.1, 0.96, 103.6, 89.5, -2.4, -58.6, i
> CCN1CCN(C(c2cccs2)C(C)NC(=O)c2ccccc2F)CC1 (stereo not given)
    -16.0, 1.42, 101.1, ., 5.8, ., i
> Clc1cccc(-c2nc3nc4ccccc4nc3n2Cc2ccco2)c1
    -5.3, 0.913, 95.5, ., -1.9, ., i
> Cc1ccc(OCCN2CCN(c3nc(NCc4ccco4)c4ccccc4n3)CC2)cc1
    -12.9, 0.72, 105.5, 99.2, 0.3, 0.0, i
> CN(CCc1ccccn1)C(=O)CCC1CCCN(C(=O)c2n[nH]c3c2CCCC3)C1 (stereo not given)
    -2.6, 1.29, 97.5, ., ., ., i
> CSc1ccccc1-n1nnnc1SCc1ccccc1
    0.3, 0.97, 106.1, 107.9, -2.0, 9.5, i
> CC(=O)c1cccc(NC(=O)COc2ccc(S(=O)(=O)N3CCCCC3)cc2)c1
    -0.6, 0.89, 100.0, 48.0, -0.8, -7.5, i
> O=[N+]([O-])c1cccc(S(=O)(=O)N/N=C/c2ccc(O)cc2)c1
    -8.1, 1.11, 94.4, 150.7, ., -42.9, i
> O=C(CCC(=O)Nc1ccccc1Cl)N/N=C1\CCCc2ccccc21
    -0.9, 1.09, 43.1, 95.9, -0.5, -11.1, i
> c1ccc(CCn2c3ccccc3c3nnc(SCc4ccc5nonc5c4)nc32)cc1
    -7.9, 0.72, 98.9, 64.4, -0.7, 17.4, i
> Cc1cccc(N(CC(=O)NC2CCCC2)C(=O)c2c(C)noc2C)c1
    0.7, 0.89, 93.2, 97.1, -0.6, 50.0, i

Structures shown so far containing a furan ring, fused or not (two):
Order of values: PKD1 kinase inh, HSV replic up primary fold, RGS16-Gao, INS promoter inh cell count, GALR2 agonist, INS promoter inh, HSV replic up
> Clc1cccc(-c2nc3nc4ccccc4nc3n2Cc2ccco2)c1
    -5.3, 0.913, 95.5, ., -1.9, ., i
> Cc1ccc(OCCN2CCN(c3nc(NCc4ccco4)c4ccccc4n3)CC2)cc1
    -12.9, 0.72, 105.5, 99.2, 0.3, 0.0, i

(more compounds)
Order of values: PKD1 kinase inh, HSV replic up primary fold, RGS16-Gao, INS promoter inh cell count, GALR2 agonist, INS promoter inh, HSV replic up
> CCCCn1cnc2c(sc3nc4c(cc32)CSC(C)(C)C4)c1=O
    0.9, 0.97, 101.1, ., -0.5, ., i
> Cc1ccc(C(=O)CSc2nn3c(=O)c(C(C)(C)C)nnc3s2)cc1
    -2.8, 0.85, 106.8, 108.4, -1.2, -23.1, i
> COc1ccc(N(C(=O)c2ccn[nH]2)C(C(=O)NC(C)(C)C)c2ccc(F)cc2)cc1 (stereo not given)
    -1.3, 1.05, 101.9, 103.5, -2.2, -53.6, i
> O=C(Nc1cnccn1)c1ccncc1
    -7.2, 0.89, 98.1, 122.0, -3.3, 25.0, i
> COc1ccc(-n2nnnc2SCc2nc(N)nc(N3CCOCC3)n2)cc1
    -4.9, 0.98, 103.2, 141.7, -1.9, 25.6, i
> Cc1cccc(-c2nc(Nc3ccc(N4CCOCC4)cc3)c3ccccc3n2)c1
    -6.7, 0.7, 103.4, 121.5, 0.0, -53.3, i
> Cc1ccc(S(=O)(=O)N(C)C)cc1NC(=O)C(C)OC(=O)/C=C/c1cccs1 (stereo not given)
    ., 1.05, 98.7, ., ., ., i
> Cc1ccsc1C(=O)OCC(=O)N1CCc2ccccc2C1
    4.1, 0.87, 105.4, ., ., ., i
> COc1ccc(CCN2CC(O)=C(c3nc4ccccc4c(=O)[nH]3)C2=N)cc1OC
    1.9, 0.69, 101.1, 127.6, -0.7, 47.6, i
> C=CCn1c(SCc2ccc(Cl)c(Cl)c2)nnc1C(CO)NC(=O)c1ccc(OC)cc1 (stereo not given)
    -4.0, 0.99, 105.3, 96.7, -0.2, -33.3, i
> CCS(=O)(=O)N1CCCC(C(=O)NCCCN2CCCC2=O)C1 (stereo not given)
    1.6, 0.91, 83.5, ., -5.7, ., i
> COc1ccc(C(=O)N/N=C/c2ccc(OC(=O)c3cccc4ccccc34)c([N+](=O)[O-])c2)cc1
    -1.1, 1, 128.7, 115.4, -3.4, 16.7, i
> COCCOC(=O)N/C=C\c1nc2ccccc2c(=O)[nH]1
    1.9, 0.81, 104.8, 61.5, -1.7, 14.3, i
> COc1ccc2c(c1)CCC1C2=NN(/C(C)=C\C(C)=O)C1c1ccc(F)cc1 (stereo not given)
    -0.8, 1.01, 98.0, 133.6, ., -75.0, i
> O=C1CC(N2CCN(Cc3ccc4c(c3)OCO4)CC2)C(=O)N1Cc1ccc(N2CCCC2=O)cc1 (stereo not given)
    9.8, 1.05, 97.9, 99.3, 0.1, 0.0, i

(continued)
Order of values: PKD1 kinase inh, HSV replic up primary fold, RGS16-Gao, INS promoter inh cell count, GALR2 agonist, INS promoter inh, HSV replic up
> N#Cc1sc2nc3c(c(-c4cccnc4)c2c1N)CCC3
    0.7, 0.89, 104.6, 135.7, 0.6, 8.6, i
> COc1ccc(CCNC(=O)C2CCN(S(=O)(=O)c3ccc(OC)c(OC)c3)CC2)cc1
    -2.4, 0.68, 106.0, 103.6, -2.4, -3.3, i
> Cc1nn(C)c(C)c1CNC(=O)Nc1ccc(Cl)cc1
    -4.1, 0.96, 109.2, ., ., ., i
> Cc1cc(C)n(-c2nc(SCC(=O)O)c3c4c(sc3n2)COC(C)(C)C4)n1
    ., 1.22, 87.8, ., ., ., i
> Cc1onc(-c2c(F)cccc2Cl)c1C(=O)NC1CCSC1=O (stereo not given)
    -1.6, 1.09, 107.0, 91.4, -1.6, 16.7, i
> COc1cc(C(=O)NC2CCN(Cc3nnnn3Cc3cccs3)CC2)cc(OC)c1OC
    7.0, 1.02, 106.4, 117.0, -0.9, 2.7, i
> N#CC(c1ccccc1O)N1N=C(c2ccccc2)CC1c1ccccc1 (stereo not given)
    ., 0.95, 99.4, ., ., ., i
> CC[C@H](C)[C@@H]1NC(=O)c2cc([N+](=O)[O-])cc(F)c2NCCCC[C@@H](C(N)=O)NC(=O)[C@H](CC(N)=O)NC1=O
    5.0, 0.76, 99.5, 97.8, -2.0, -10.0, i
> CCCC(=O)Nc1nc2ccc(NC(=O)c3c(F)c(F)c(OC)c(F)c3F)cc2s1
    -6.1, 0.68, 104.2, ., ., ., i
> CCCN(CC1CC1)S(=O)(=O)c1ccc(-n2cnnn2)c(OC)c1
    5.6, 0.74, 93.7, 92.5, 0.0, -20.0, i
> CCOC(=O)C(Cc1ccccc1)c1ccnc2ncnn12 (stereo not given)
    2.1, 1.03, 97.2, 118.7, ., 20.0, i
> N#Cc1c(/N=C/N2CCCC2)oc(-c2ccccc2)c1-c1ccccc1
    -4.5, 1.08, 84.8, 139.6, -4.2, -13.3, i
> CCNC(=O)COC(=O)CCNC(=O)c1cccc(C)c1
    -5.0, 1.01, 106.6, 101.1, ., 0.0, i
> Cn1c(=O)[nH]c(=O)c2c1nc(Br)n2CCCc1ccccc1
    -5.9, ., 101.0, 124.3, -2.2, 9.6, .
> CCOC(=O)/C(C#N)=C1/C=CN(c2ccc(C)cc2)C=N1
    2.5, 0.91, 101.6, 100.0, 0.1, 6.5, i

Following part:
Order of values: PKD1 kinase inh, HSV replic up primary fold, RGS16-Gao, INS promoter inh cell count, GALR2 agonist, INS promoter inh, HSV replic up
> CC1(C)CC(=O)C(Sc2ccccc2[N+](=O)[O-])=C(O)C1
    0.2, 1.04, 82.4, 138.5, -1.2, 15.4, i
> Cc1cc(C)n2nc(SCC(=O)N/N=C/c3ccccc3F)nc2n1
    -1.2, 0.99, 97.5, ., -1.0, ., i
> Cc1cnc([N+](=O)[O-])n1CCOC(=O)NC(=O)c1ccc(F)cc1
    6.8, 1.03, 108.3, 93.9, ., 23.5, i
> COC(=O)CCC(=O)Nc1cccc(Br)c1
    -8.9, 0.9, 106.8, 113.8, -1.6, -6.2, i
> CCCC1=NN(C(=O)C(=O)Nc2ccc(Br)cc2)C(O)(C(F)(F)F)C1 (stereo not given)
    1.2, 0.87, 100.8, ., ., ., i
> CC1CCN(S(=O)(=O)c2ccc3c(c2)c(=O)c(C(=O)NC2CCCC2)cn3C)CC1
    -7.4, 0.74, 100.2, 61.1, -1.0, 27.3, i
> COC(=O)CN1C(=S)N(Cc2ccccc2)C(=O)C1CC(=O)Nc1ccc(Br)cc1 (stereo not given)
    -7.5, 0.92, 102.7, 77.2, -2.6, 46.1, i
> CCNC(=S)N(Cc1ccco1)Cc1cc2cc(OCC)ccc2[nH]c1=O
    2.8, 1, 97.6, ., ., ., i
> Fc1cccc(-c2cc3nc4c(c(NCc5ccco5)n3n2)CCCC4)c1
    2.3, 0.84, 106.5, ., -0.8, ., i
> O=c1oc2ccccc2c(O)c1CN1CCCCC1
    -7.2, 0.99, 100.2, ., -1.2, ., i
> Nc1nc(C23CC4CC(CC(Cl)(C4)C2)C3)cs1
    ., 1.1, 101.3, ., ., ., i
> Cn1c(C(=O)NCC2CCCO2)cc2c(=O)n(C)c3ccccc3c21 (stereo not given)
    1.3, 1.29, 99.2, ., -1.6, ., i
> N/C(=N\OC(=O)c1ccc(OCC(F)(F)F)nc1)c1ccc(Cl)cc1
    ., 0.88, 100.7, ., ., ., i
> CCOc1ccc(NC(=O)NC(=O)N(C)S(=O)(=O)c2ccc(C)cc2)cc1
    -0.5, 1.01, 95.4, 141.8, ., -5.0, i
> Cc1nc2ccccc2c(=O)n1NC(=O)Cc1ccc([N+](=O)[O-])cc1
    -2.1, 1.04, 103.9, ., ., ., i

Continuation.
Order of values: PKD1 kinase inh, HSV replic up primary fold, RGS16-Gao, INS promoter inh cell count, GALR2 agonist, INS promoter inh, HSV replic up
> O=C(N/N=C\c1cc(Br)ccc1O)c1ccc(S(=O)(=O)N2CCCCC2)cc1
    -12.5, 0.61, 94.9, ., 6.1*, ., i
> COc1ccc(N2C(=O)c3ccccc3NC2c2cccnc2)cc1 (stereo not given)
    3.4, 0.94, 100.9, 167.1, ., -14.3, i
> CC(C)(C)C1CCC2(CC1)C(C#N)=C(SCC(=O)Nc1ccccc1)NC(=O)C2C#N (stereo not given)
    -7.5, 0.92, 107.6, 106.4, 0.5, -3.7, i
> Cc1ccc(NC(=O)CSc2nc(C)c(C)c(C)n2)c([N+](=O)[O-])c1
    -3.7, 0.91, 101.7, 115.2, -1.6, 30.8, i
> Cc1cccc(N(C(=O)Cn2nnc3ccccc32)C(C(=O)NC(C)(C)C)c2ccsc2)c1C (stereo not given)
    1.8, 0.96, 103.3, 160.2, -2.0, -6.2, i
> COC(=O)c1ccc(C(=O)OC)c(NC(=O)C(C)(C)C)c1
    -5.0, 0.9, 108.7, 124.8, ., 0.0, i
> Cc1ccc2c(c1)cc(CN(Cc1ccc3c(c1)OCO3)C(=O)c1cnccn1)c1nnnn12
    3.0, 0.86, 103.1, ., -1.6, ., i
> Cc1cc(NC(=O)/C=C/c2ccc(Br)cc2)no1
    1.4, 0.95, 96.9, 102.5, 1.8, -28.6, i
> CCn1c(SCC(=O)O)nnc1C1CCCCC1
    2.8, 0.93, 95.4, 61.6, -0.2, 0.0, i
> CCOC(=O)CCCCC(=O)c1[nH]c(=O)[nH]c1Cn1ccnc1
    1.7, 1.03, 113.5, 126.0, -0.8, 21.4, i
> O=C(CC1C(=O)NCCN1CC1CCCCC1)NCCc1ccc(F)cc1 (stereo not given)
    5.9, 0.97, 103.4, ., ., ., i
> Cc1nc2ccccc2n1CCCOc1ccccc1
    -4.3, 0.94, 107.6, 123.2, -1.4, 50.0, i

Screening data: PubChem BioAssay, several laboratories
